Cruzain inh Det: cruzain (T. cruzi) inhibition with detergent | P25779 | purified cruzain, Z-FR-AMC fluorescence, 0.01% Triton | Potency, µM, inactives show max response, negative = inhibition, most hits filed as inhibitors | actives 0.43% (n = 200,000);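 note: plate controls were neutral wells for no effect and buffer without enzyme for full effect; nearly all actives have a fitted effect of over 40% in size; top concentration of the series not given in the record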
Target sequence (P25779 123-467 limits assumed): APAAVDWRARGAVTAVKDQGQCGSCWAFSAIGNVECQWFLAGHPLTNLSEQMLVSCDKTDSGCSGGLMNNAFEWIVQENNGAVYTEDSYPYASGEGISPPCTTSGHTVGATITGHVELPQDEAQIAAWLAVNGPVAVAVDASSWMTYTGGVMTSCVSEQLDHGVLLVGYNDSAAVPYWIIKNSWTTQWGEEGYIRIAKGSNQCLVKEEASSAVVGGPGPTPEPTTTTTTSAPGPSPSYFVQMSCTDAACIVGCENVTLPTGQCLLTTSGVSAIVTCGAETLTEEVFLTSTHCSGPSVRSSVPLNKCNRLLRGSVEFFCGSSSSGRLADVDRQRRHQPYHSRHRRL
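Sodium acetate buffer (100 mM, pH 5.5) containing 5 mM DTT and 0.01% Triton X-100 hosted 1.5 nM cruzain and test compound for 15 min at room temperature. Cleavage of 2 uM Z-FR-AMC was then tracked by fluorescence.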
StopGo reporter: FMDV 2A StopGo reporter, luciferase signal; actives 1.2% (n = 410,000); Potency, µM (series often up to 57.9 µM), for inactives: at the top dose signal change, negative = less light; human cells with a luciferase reporter of 2A StopGo recoding; control for the full effect not named in the record; active = well fitted falling curve with a large enough effect; inconclusive = small, poorly fitted or top-dose-only effect; inactive = no such curve, though single readings can be large or run the other way; tested in HEK293T cells; note: % is set by controls: 0 for no effect and ±100 for the full control effect; nearly all actives have a fitted effect of over 45% in size; luciferase light after 4 h
MARV entry inh: Marburg virus entry inhibition; Potency, µM (highest dose often 37.8 µM), inactives show at the top dose activity change, negative = inhibition, hits mostly inhibitors; Marburg virus pseudotyped entry inhibition, cell reporter; control for the full effect not named in the record; about a third of the inactives were read at about 46 µM; actives 1.8% (n = 300,000); active = well fitted inhibition curve with a large enough effect; inconclusive = small, poorly fitted or top-dose-only effect, or effect the other way; inactive = flat fitted curve, though single readings scatter; tested in HEK293 cells; about a fifth of its hits are not listed in these tables; note: % is set by controls: 0 for no effect and ±100 for the full control effect; luciferase read-out
Cruzain noTriton: inhibitors of Trypanosoma cruzi cruzain without detergent. P25779. purified cruzain, Z-FR-AMC fluorescence, no detergent. Potency, µM, for inactives: max response, negative = inhibition, actives largely listed as inhibitors. actives 2.3% (n = 200,000);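 note: plate controls were enzyme without inhibitor for no effect and buffer without enzyme for full effect; nearly all actives have a fitted effect of over 40% in size; top concentration of the series not given in the record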
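Purified cruzain at 1.5 nM, pre-incubated 15 min with compound at room temperature in 100 mM sodium acetate pH 5.5, 5 mM DTT, 0.00005% Triton X-100. Reaction started with 2 uM Z-FR-AMC; AMC fluorescence increase over 60 s gives rate.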
NS1 function inh: blocks influenza NS1 protein function | S. cerevisiae slowed by influenza A NS1, growth recovery by OD600 | Potency, µM (top dose mostly 46.1 µM), for inactives: top-dose activity, positive = more growth | actives 0.4% (n = 270,000) | AID 2326; active means well fitted rising curve with a large enough effect; inconclusive means small, poorly fitted or top-dose-only effect; inactive means no such curve, though single readings can be large or run the other way; note: nearly all actives have a fitted effect of over 50% in size
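A cell-based growth assay was used: compounds that relieve NS1-induced slow growth of budding yeast raise OD600. Assay medium was yeast nitrogen base with ammonium sulphate and -URA supplement, pH 6.0, with 2% galactose.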
SARS PLP yeast: inhibitors of SARS-CoV papain-like protease in yeast. actives 0.19% (n = 330,000). Potency, µM (doses to about 32.9 µM), inactives show at the top dose activity, positive = growth rescue. AID 485353. S. cerevisiae expressing SARS-CoV PLpro, growth rescue; control for the full effect not named in the record; active means well fitted rising curve with a large enough effect; inconclusive means small, poorly fitted or top-dose-only effect; inactive means no such curve, though single readings can be large or run the other way; note: 0% is about no effect; nearly all actives have a fitted effect of over 55% in size; growth read by luminescence after 48 h
LASV entry inh: Lassa virus entry inhibition | Lassa virus pseudotype entry inhibition, cell reporter; control for the full effect not named in the record | Potency, µM (doses to about 37.9 µM), inactives show top-dose activity change, negative = inhibition, hits mostly inhibitors | actives 1.2% (n = 300,000); active means well fitted inhibition curve with a large enough effect; inconclusive means small, poorly fitted or top-dose-only effect, or effect the other way; inactive means flat fitted curve, though single readings scatter; tested in HEK293 cells; note: % is set by controls: 0 for no effect and ±100 for the full control effect; nearly all actives have a fitted effect of over 50% in size; luciferase read-out
RE007 growth inh: less growth of the S. pombe RE007 Vpr strain; AID 651644; actives 0.21% (n = 360,000); Potency, µM (series often up to 92.2 µM), for inactives: at the highest dose activity change, negative = less growth; S. pombe RE007 Vpr strain, BacTiter-Glo ATP luminescence, 24 h; control for the full effect not named in the record; active = well fitted falling curve with a large enough effect; inconclusive = small, poorly fitted or top-dose-only effect; inactive = no such curve, though single readings can be large or run the other way;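 note: % is set by controls: 0 for no effect and ±100 for the full control effect; nearly all actives have a fitted effect of over 50% in size; the assay follows cell death caused by Vpr and the record does not say whether a fall means rescue or toxicity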
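Fission yeast RE007 carrying one integrated HIV-1 vpr copy, seeded at OD 0.01 in PMG+AL medium with 23 nL pinned compound. Grown 24 h at 30 degrees; viability read by BacTiter-Glo luminescence after 5 min.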
An asterisk follows results filed as active; ? = inconclusive; . = not tested or not shown; & = joins results of further samples; [ ] = dose if it differs, or a comment. Unless noted, calls come from the whole dose curve; as a rule, active = well fitted curve in the direction sought with a large enough effect; inconclusive = small, poorly fitted or top-dose-only effect, or another doubt; inactive = no such curve, though single readings can be large; an effect the other way counts as inactive or inconclusive. Potency is the fitted concentration of half-maximal effect.

No.	Structure	Cruzain inh Det	StopGo reporter	MARV entry inh	Cruzain noTriton
1	C/C(N)=C(/C#N)C(=O)CSc1nnc(COc2ccccc2Cl)o1	9.7%	29%&17%	1%&22%	-1%
2	Cc1cc(N2CCN(C)CC2)nc2ccc(NC(=O)Nc3ccc(Cl)cc3)cc12	-1.9%	2%	.	-7%
3	Cn1nc(C(F)(F)F)c(-c2ccc(Br)cc2)c1NC(=O)CSCC(=O)O	.	-7%	12%[46.1 µM]	.
4	Cc1c(C)n(Cc2ccccc2)c2ccc(C(=O)OCCCN(C)C)cc12	.	-8%	10µM*	.
5	CC(=O)c1ccc(N2CCN(CC(O)COC(c3ccccc3)c3ccccc3)CC2)cc1 (stereo not drawn)	.	-19%	?	.
6	Nc1nnc(SCC(=O)Nc2cccc3ccccc23)s1	.	-23%	14%[46.1 µM]	.
7	NC(=O)C1CCN(C2CC(=O)N(c3ccc(F)c(Cl)c3)C2=O)CC1 (stereo not drawn)	7.9%	8%	0%	-13%
8	CCOC(=O)c1[nH]c2ccccc2c1NC(=O)c1ccc(Br)cc1	-0.7%	-4%	?	-6%
9	Cn1c(SCC(=O)O)nnc1-c1ccc(NC(=O)c2ccc(Cl)c(Cl)c2)cc1	.	-7%	0%[46.1 µM]	.
10	Cc1cc(NCCCn2ccnc2)n2nc(C)c(-c3ccccc3)c2n1	2.6%	25%	-4%	9%

No.	NS1 function inh	SARS PLP yeast	LASV entry inh	RE007 growth inh
1	8%	2%	-1%[46.1 µM]	14%&1%
2	.	.	8%[46.1 µM]	.
3	-1%	0%	1%[46.1 µM]	52%
4	4%	0%	?	-18%
5	3%	4%	0%[46.1 µM]	25%
6	-4%	-1%	13%	-4%
7	-147%	-40%	4%	10µM*
8	.	.	26%[46.1 µM]	.
9	0%	0%	12%	9%
10	-3%	4%	3%	-6%

The list continues.
No.	Structure	Cruzain inh Det	StopGo reporter	MARV entry inh	Cruzain noTriton
11	COc1ccc(-c2nc3sc(CCNC(=O)c4cc(Cl)ccc4OC)c(C)n3n2)cc1	-3.8%	18%	.	?
12	O=C(Nc1ccc2c(c1)CCC2)c1ccc(F)c(S(=O)(=O)N2CCOCC2)c1	-2.2%	-26%	?	9%
13	Cc1cccc(C(=O)Nc2ccc(C(=O)OCc3cc(=O)n4nc(C5CC5)sc4n3)cc2)c1	1.6%	14µM*	.	0%
14	CCOc1ccc2nc3cc(N=Nc4ccc(N)nc4N)ccc3c(N)c2c1	-4.0%	-9%	-17%	2%
15	Cc1cc2c(cc1S(=O)(=O)CCC(=O)N(C)Cc1ccccc1)OCC(=O)N2	-8.5%	-12%&-11%	.	9%
16	CCn1cc(S(=O)(=O)Nc2ccccc2C(F)(F)F)cn1	.	26%	-30%[46.1 µM]	.
17	CC(=O)Oc1ccc2oc(=O)c3c(c2c1)CCCN3C(=O)CN1CCN(c2ncccn2)CC1	-4.7%	29%	-8%	-7%
18	COc1ccc(NC(=O)NC(C)c2ccncc2)cc1OC (stereo not drawn)	7.5%	13%	5%	-4%
19	CCOC(=O)C1CCN(C(=O)/C(=C/c2ccccc2)NC(=O)c2ccccc2)CC1	.	50%[activator]	.	.
20	CCCCN1C(=O)c2[nH]nc(-c3ccccc3O)c2C1c1ccc(OCc2ccccc2)c(OC)c1 (stereo not drawn)	-5.4%	-25%	?	?

No.	NS1 function inh	SARS PLP yeast	LASV entry inh	RE007 growth inh
11	.	.	?	.
12	16%	1%	?	1%
13	.	.	3.2µM*	.
14	-61%	.	4%[46.1 µM]	-8%
15	9%	5%	3%[46.1 µM]	-3%
16	2%	-1%	3%	5%
17	-13%	1%	1%	-2%
18	-4%	20%	6%	-5%
19	16%	5%	.	8%
20	.	.	?	.

(further entries)
No.	Structure	Cruzain inh Det	StopGo reporter	MARV entry inh	Cruzain noTriton
21	CN(Cc1ccccc1)C(=O)COC(=O)c1ccccc1Nc1ccccc1	-5.3%	-1%	?	-1%
22	c1ccc(-n2c(Cc3cccnc3)nc3cnccc32)cc1	.	20%	13%&13%	.
23	C=CC[N+]1(CC#CCOC(c2ccccc2)c2ccccc2)CCOCC1	5.9%	-9%	14%	-3%
24	Nc1cc(=O)n(Cc2ccccc2)c(=O)n1-c1ccc(Cl)cc1	.	1%	3%[46.1 µM]	.
25	O=C(COC(=O)CSc1ccc(Cl)cc1)Nc1ccc2[nH]c(=O)[nH]c2c1	.	-3%	1%[46.1 µM]	.
26	O=C(NCc1ccco1)C(c1ccccc1)N(C(=O)Cc1cccs1)c1ccccc1 (stereo not drawn)	-1.7%	16%	?	-6%
27	Cc1ccc(N=Nc2ccc(C)cc2NC(=O)Nc2ccccc2F)cc1	.	44%[activator]	.	.
28	Cc1ccc(-n2nnc(-c3nccn3C)n2)cc1	.	-41%	.	.
29	COC(=O)c1ccc(NC(=O)C(=O)N2CCN(C(=S)NCCc3ccccc3)CC2)cc1	-6.1%	-38%	-2%	-6%
30	CCCOc1cccc(C2C(C(=O)c3ccco3)=C(O)C(=O)N2CCN(CC)CC)c1 (stereo not drawn)	0.4%	12%	5%	0%

No.	NS1 function inh	SARS PLP yeast	LASV entry inh	RE007 growth inh
21	11%	-13%	?	5%
22	.	.	18%	12%
23	-1%	-2%	-14%	4%
24	5%	-1%	.	-2%
25	.	5%	6%[46.1 µM]	9%
26	5%	-21%	-20%	-6%
27	-5%	-2%	.	-11%
28	-4%	-2%	.	?
29	10%	20%	-2%	6%
30	-1%	-4%	0%	6%

Random excerpt: three compounds from above, in no set order.
No.	Structure	Cruzain inh Det	StopGo reporter	MARV entry inh	Cruzain noTriton
24	Nc1cc(=O)n(Cc2ccccc2)c(=O)n1-c1ccc(Cl)cc1	.	1%	3%[46.1 µM]	.
21	CN(Cc1ccccc1)C(=O)COC(=O)c1ccccc1Nc1ccccc1	-5.3%	-1%	?	-1%
23	C=CC[N+]1(CC#CCOC(c2ccccc2)c2ccccc2)CCOCC1	5.9%	-9%	14%	-3%

No.	NS1 function inh	SARS PLP yeast	LASV entry inh	RE007 growth inh
24	5%	-1%	.	-2%
21	11%	-13%	?	5%
23	-1%	-2%	-14%	4%

Following part:
No.	Structure	Cruzain inh Det	StopGo reporter	MARV entry inh	Cruzain noTriton
31	Nc1nc(Nc2ccccc2Cl)cc(=O)[nH]1	.	8%	0%[46.1 µM]	.
32	COc1ccc(/C=N/Nc2nc(=O)[nH]nc2C)cc1[N+](=O)[O-]	-0.8%	36%[activator]	30%[46.1 µM]	0%
33	O=C(CSc1ncn[nH]1)Nc1ccccc1Sc1ccc(Cl)cc1	-1.4%	16µM*	-12%	0%
34	O=C(O)CC(CC(=O)N1CCOCC1)c1ccccc1 (stereo not drawn)	.	-9%	.	.
35	Cc1ccccc1NC(=O)Nc1ccc(C(F)(F)F)cc1	.	1%	1%[46.1 µM]	.
36	Cn1c(=O)cc(N2CCCCC2)[nH]c1=O	-4.3%	-2%	.	0%
37	O=C(CCN1C(=O)c2ccccc2C1=O)Nc1ccc(S(=O)(=O)NC2=NCCCCC2)cc1	2.5%	1%	2%	5%
38	COCCCNC(=O)C(=O)NC1CCCCCC1	2.1%	25%	?	2%
39	CCOC(=O)C1=C(N)OC2=C(C(=O)CC(C)(C)C2)C1c1ccccc1OCC#N (stereo not drawn)	-0.8%	-13%	0%	15%
40	COc1ccc(/C(C)=N/NC(=O)CNC(=O)C(c2ccccc2)c2ccccc2)c(OC)c1	.	1%	?	.

No.	NS1 function inh	SARS PLP yeast	LASV entry inh	RE007 growth inh
31	?	1%	-15%[46.1 µM]	-4%
32	-10%	-14%	0%	6%
33	1%	-1%	?	-1%
34	4%	-1%	.	1%
35	-7%	-2%	-12%	1%
36	-7%	5%	.	-4%
37	-11%	-1%	8%	9%
38	12%	1%	?	2%
39	-25%	0%	-3%	-13%
40	-4%	-4%	?	0%

(further entries)
No.	Structure	Cruzain inh Det	StopGo reporter	MARV entry inh	Cruzain noTriton
41	CCOc1ccc(OCC)c(NS(=O)(=O)c2c(C)[nH]c(=O)[nH]c2=O)c1	0.0%	8%	.	-11%
42	Cc1ccc(C2C(C#N)=C(N)N(c3cccnc3)C3=C2C(=O)CCC3)s1 (stereo not drawn)	.	0%	4%	.
43	COc1cc(C(=O)Nc2nnc(SCC(=O)NCC3CCCO3)s2)cc(OC)c1OC (stereo not drawn)	.	-10%	-15%	.
44	O=c1oc(-c2ccc([N+](=O)[O-])cc2)nc2ccc(O)cc12	.	7%	4%[46.1 µM]	.
45	CCN(CC)CC(=O)Nc1ccc(C)cc1Br	3.1%	24%	-5%	-10%
46	CCC(C)(C)NC(=O)Nc1cc(Cl)ccc1OC	.	2%	-12%	.
47	Cc1cc(NS(=O)(=O)c2ccc(NC(=O)C(CC(C)C)N3C(=O)c4ccccc4C3=O)cc2)nc(C)n1 (stereo not drawn)	-8.8%	55%[activator]	21%	?
48	Cc1csc(NC(=O)C2CCCN(S(=O)(=O)c3ccc(Br)s3)C2)n1 (stereo not drawn)	-6.7%	?	?	-15%
49	Cc1cc(=O)n(CC=C(Cl)Cl)c2ccccc12	-1.0%	-20%	11%	0%

No.	NS1 function inh	SARS PLP yeast	LASV entry inh	RE007 growth inh
41	.	.	-4%[46.1 µM]	.
42	7%	0%	8%	7%
43	9%	4.5µM*	-1%	-5%
44	.	-1%	3%	-18%
45	3%	9%	?	10%
46	.	3%	3%	0%
47	11%	1%	17%	8%
48	1%	2%	-13%	15%
49	-13%	-4%	-5%	?
